Assay outcomes (PubChem BioAssay)
BJeLR viability = BJeLR cell viability loss; BJeLR (HRASV12) viability, CellTiter-Glo ATP luminescence, 48 h; reference of the scale not given here; inhibition, % (concentration not given with the values); 300,000 compounds, 0.17% hits;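 active = replicate mean above 50%; inconclusive = above 50% but judged a plate artefact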;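 note: 50 nL library stock added to about 25 µL; numbers are from one replicate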
Sa ugtP lethal = growth inhibition of S. aureus ugtP deletion strain; S. aureus RN4220 ugtP deletion, OD600 growth, 16 h; some inactives read as strong as hits; growth inhibition, % (concentration not given with the values); 330,000 compounds, 0.54% hits; AID 1259309;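 active = z-score under -3 and OD600 up to 0.15 on both plates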;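 note: plate controls were untreated wells for no effect and antibiotic for full effect; wells of about 80 µL received 100 nL stock; the first replicate is given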
Mtb hypoxia rep = Mtb hypoxia fluorescent reporter inhibition; M. tuberculosis hypoxia-regulated fluorescent reporter, fluorescence; fluorescence inhibition, % (concentration not given with the values); 300,000 compounds, 0.1% hits; AID 1159583;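 active = 35 to 45% if threefold the growth effect, above 45% if 1.5-fold the growth effect; inactive = the rest, general growth blockers included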;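 note: wells of about 50 µL received 100 nL stock; 0% = vehicle wells and 100% = reference inhibitor wells; whole bacteria with a GFP reporter of the hypoxia response; strong numbers were not always called active; many hits fall short of the cut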
PrP 5UTR inh = suppresses PrP 5' UTR mRNA reporter expression; cell-based PrP 5' UTR mRNA reporter, plate reader; inhibition, % (no concentration beside the values); 340,000 compounds, 0.35% hits;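 active = every replicate at 50% or more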;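 note: 0 = median of the neutral control wells; tested in H4 reporter cells; numbers are from one replicate; inactives centre near -14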
RN4220 kill = S. aureus RN4220 growth inhibition; AID 1259311; 330,000 compounds, 0.33% hits; inhibition, % (no concentration beside the values); OD600, 16 h;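 active = z-score of -3 or lower and OD600 up to 0.18 on both plates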;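 note: plate controls were untreated cells for no effect and reference antibiotic for full effect; stock transfer was 100 nL into about 80 µL; one replicate is shown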
Bead autofluor = flagged as autofluorescent in microsphere protease counterscreen; compound autofluorescence counterscreen, microsphere flow cytometry; hits give high values; fluorescence intensity (test concentration not listed); 360,000 compounds, 3.1% hits;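 active = at least 3 SD above the mean of all compounds, about 16000 in these data; inconclusive = too few beads counted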;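 note: 100 nL of 1 mM stock went into each well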
Mtb hypoxia rep growth = also measured in Mtb hypoxia rep; calls as there; growth inhibition, %; measured here: M. tuberculosis growth (absorbance);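 0% = vehicle and 100% = reference antibiotic; read after six days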
* marks the source's active call; other numbers are inactive results; u = inconclusive; x = not tested or not shown.

Under each structure – PrP 5UTR inh	Bead autofluor	RN4220 kill	Sa ugtP lethal	BJeLR viability	Mtb hypoxia rep	Mtb hypoxia rep growth
(1) O=C(Nc1ccccc1)c1ccccc1N=Cc1cccc(O)c1
→ -10	2104	5.8	14	2	1	-11
(2) CCCCNc1ncnc2c1cnn2-c1ccc(C)cc1C
→ 6	5590	-1.1	10	16	14	24
(3) CC1(C)CCC(=O)N(c2ccc(OC(F)(F)F)cc2)C1=O
→ -16	4352	0.6	7	-2	8	6
(4) CC(=NNc1ccc2nncn2n1)c1ccco1
→ x	x	2.3	10	x	6	5
(5) Cc1ccc(C(=O)Oc2ccc(Cl)c3cccnc23)cc1[N+](=O)[O-]
→ -5	x	12	-2	-4	-1	6
(6) COc1ccc(NC(=O)COC(=O)Cn2cnc3ccccc3c2=O)cc1OC
→ -4	4142	4.2	14	1	12	8
(7) COC(=O)c1cc(Br)c(=O)n(-c2ccccc2F)c1
→ -1	3678	-2.8	7	-3	x	x
(8) Brc1ccc(Nc2c3c(nc4ncnn24)CCC3)cc1
→ 1	10898	3.4	-1	-5	6	6
(9) CC1CCN(C(=O)CSc2nc3c(c(=O)n(C)c(=O)n3C)n2C)CC1
→ -30	3831	0.7	5	10	19	5
(10) Cc1ccc(NC(=O)COC(=O)Cc2c(F)cccc2Cl)cc1S(=O)(=O)N1CCOCC1
→ -37	4317	-1.7	4	10	0	-3
(11) O=C(C1CCCC1)N1CCN(S(=O)(=O)c2cccc(Cl)c2Cl)CC1
→ x	3324	-2.2	-3	-14	5	-3
(12) CCCCN(C(=O)c1cc(S(=O)(=O)N2CCCCCC2)ccc1OC)c1ccccc1
→ -17	u	7.7	3	9	6	4
(13) CC(C)Oc1ccc(C(=O)CCN2CCOCC2)cc1
→ -8	4370	6.8	9	-6	7	22
(14) COc1ccc(/C=N/NC(=O)c2cccc([N+](=O)[O-])c2)c2ccccc12
→ -12	3858	x	x	7	x	x
(15) NC1=NCC(c2ccccc2)N1CCc1cc(C(F)(F)F)cc(C(F)(F)F)c1 (configuration not stated)
→ x	x	-12	-3	x	5	16
(16) Cc1ccc(C)c(NC(=O)CCOc2ccccc2)c1
→ -12	3992	-0.3	0	-7	7	12
(17) COc1ccccc1Oc1ccc2c(c1)C(=O)N(c1ccc(C)cc1)C2=O
→ -29	2909	1.3	2	2	x	x
(18) CCOC(=O)C1=C(O)/C(=C/c2cc(C)n(-c3ccccc3)c2C)N=C1C
→ -13	3808	3.3	7	-10	11	4
(19) COC(=O)Cc1nc2ccccc2[nH]1
→ -8	2442	1.9	-7	2	5	7
(20) CCN(CC(=O)Nc1c(F)cccc1F)C(=O)C1Cc2ccccc2CN1S(=O)(=O)CC (configuration not stated)
→ -42	16229*	1.8	5	7	4	4

In a second layout: 12 of the compounds above.
nr	SMILES	PrP 5UTR inh	Bead autofluor	RN4220 kill	Sa ugtP lethal	BJeLR viability	Mtb hypoxia rep	Mtb hypoxia rep growth
9	CC1CCN(C(=O)CSc2nc3c(c(=O)n(C)c(=O)n3C)n2C)CC1	-30	3831	0.7	5	10	19	5
10	Cc1ccc(NC(=O)COC(=O)Cc2c(F)cccc2Cl)cc1S(=O)(=O)N1CCOCC1	-37	4317	-1.7	4	10	0	-3
11	O=C(C1CCCC1)N1CCN(S(=O)(=O)c2cccc(Cl)c2Cl)CC1	x	3324	-2.2	-3	-14	5	-3
12	CCCCN(C(=O)c1cc(S(=O)(=O)N2CCCCCC2)ccc1OC)c1ccccc1	-17	u	7.7	3	9	6	4
13	CC(C)Oc1ccc(C(=O)CCN2CCOCC2)cc1	-8	4370	6.8	9	-6	7	22
14	COc1ccc(/C=N/NC(=O)c2cccc([N+](=O)[O-])c2)c2ccccc12	-12	3858	x	x	7	x	x
15	NC1=NCC(c2ccccc2)N1CCc1cc(C(F)(F)F)cc(C(F)(F)F)c1 (configuration not stated)	x	x	-12	-3	x	5	16
16	Cc1ccc(C)c(NC(=O)CCOc2ccccc2)c1	-12	3992	-0.3	0	-7	7	12
17	COc1ccccc1Oc1ccc2c(c1)C(=O)N(c1ccc(C)cc1)C2=O	-29	2909	1.3	2	2	x	x
18	CCOC(=O)C1=C(O)/C(=C/c2cc(C)n(-c3ccccc3)c2C)N=C1C	-13	3808	3.3	7	-10	11	4
19	COC(=O)Cc1nc2ccccc2[nH]1	-8	2442	1.9	-7	2	5	7
20	CCN(CC(=O)Nc1c(F)cccc1F)C(=O)C1Cc2ccccc2CN1S(=O)(=O)CC (configuration not stated)	-42	16229*	1.8	5	7	4	4

Further entries follow:
Under each structure – PrP 5UTR inh	Bead autofluor	RN4220 kill	Sa ugtP lethal	BJeLR viability	Mtb hypoxia rep	Mtb hypoxia rep growth
(21) CC(C)(C)OC(=O)NC(Cc1ccccc1)C(=O)NC(CO)C(O)C1CC1C(=O)NC1CC1 (configuration not stated)
→ x	x	2.6	-1	x	15	5
(22) Cc1ccc(C)c(N2CCN(C(=O)CCCOc3cc(=O)n(C)c4ccccc34)CC2)c1
→ -16	10414	1.4	-14	1	-3	7
(23) COc1ccc(NC(=O)COc2ccc(C(=O)OCC(=O)N(C)C3CCS(=O)(=O)C3)cc2OC)cc1 (configuration not stated)
→ -22	3394	4.7	-72	-3	6	3
(24) CC(C)c1ccc(NC(=O)C2C3C=CC4(CN(CCCN5CCOCC5)C(=O)C24)O3)cc1 (configuration not stated)
→ -8	4705	5.1	3	-3	x	x
(25) NC(=NCc1ccccc1)C(N=Nc1ccccc1)C(=O)NCc1ccccc1 (configuration not stated)
→ -24	3830	-5.4	-18	x	17	11
(26) Cc1ccc(NC(=O)CCn2c(=S)oc3ccccc32)cc1F
→ -3	3394	-1.7	12	-11	1	7
(27) O=c1ccc2cc(S(=O)(=O)N3CCN(c4ccccc4F)CC3)ccc2[nH]1
→ -20	6288	-9.1	-1	12	8	11
(28) CC(=N/N=C1/NC(=O)CS1)c1cccs1
→ x	x	6.3	18	x	-1	-5
(29) CN(CC(=O)O/N=C(\N)c1ccc(Br)cc1)S(=O)(=O)c1ccccc1
→ -6	5391	-1.2	3	1	1	-2
(30) O=C(COC(=O)CNC(=O)c1ccccc1F)NCCC1=CCCCC1
→ -3	1883	6.2	6	0	11	3
(31) Cc1nc2oc3c(=O)[nH]cnc3c2c2c1COC(C)(C)C2
→ -7	4825	3.7	11	-5	9	8
(32) CCOC(=O)c1sc(NC(=O)CN(CC(C)C)CC(C)C)c(C(=O)OCC)c1C
→ -39	22136*	-3.3	15	-4	6	10
(33) O=C(NCc1ccccn1)C1CCCN(Cc2cnn(-c3ccccc3)c2-n2cccc2)C1 (configuration not stated)
→ -5	4117	5.8	1	6	2	-3
(34) O=C(NCC1CCCO1)c1ccc(F)c2ccccc12 (configuration not stated)
→ -9	5199	x	x	-4	x	x
(35) O=c1c2c(nc(NCCO)n1CC1CCCCC1)-c1ccccc1CC21CCCC1
→ -10	x	-9.6	47	25	x	x
(36) CC(=NN1CCN(c2ccccn2)CC1)c1ccc([N+](=O)[O-])cc1
→ x	x	6.5	-3	x	12	0
(37) O=C(NC(=S)Nc1nc(-c2ccc([N+](=O)[O-])cc2)cs1)c1ccco1
→ -22	4989	2.4	-13	13	8	9
(38) NC(=O)C1CCN(c2nc(-c3ccccc3)nc3ccccc23)CC1
→ -18	4139	-5.2	-21	-7	-1	7
(39) O=C(O)CC1NC(=O)N(c2ccc(Cl)cc2)C1=O (configuration not stated)
→ 6	2682	7.0	4	12	8	2
(40) CN(CCOc1ccccc1)C(=O)c1cc([N+](=O)[O-])ccc1N1CCOCC1
→ -12	x	2.5	6	-6	3	0
(41) Cc1nc2ccccn2c1C(=O)CSc1ccccc1Cl
→ -11	3404	9.4	11	2	x	x
(42) O=C(Nc1ccc(O)c(-c2nc3ccccc3o2)c1)C1(c2ccc([N+](=O)[O-])cc2)CCCC1
→ -6	2061	9.7	11	-20	4	7
(43) CC1CN(C(=O)COC(=O)CSc2ccc(C(N)=O)cc2[N+](=O)[O-])CC(C)O1 (configuration not stated)
→ -24	5991	1.1	3	3	3	15
(44) CCCC(=O)Oc1ccc(-c2nccc(C(OC)OC)n2)cc1
→ -16	3922	1.4	3	12	5	2
(45) O=C(NN1C(=O)/C(=C\c2ccc(O)c([N+](=O)[O-])c2)SC1=S)c1ccccc1Cl
→ -16	3216	x	x	0	x	x
(46) O=C(O)C1CCCCC1C(=O)NCCc1ccc(Cl)cc1 (configuration not stated)
→ -15	2810	-1.7	-3	-6	x	x
(47) C/C(=N/NC(=O)c1ccc2c(c1)OCO2)c1ccc(NC(=O)C(F)(F)F)cc1
→ -68	10775	x	x	4	x	x
(48) C[C@@]12CCC=CC1C(c1ccc3ccccc3c1)N(Cc1ccccc1)C2=O (some centres not stated)
→ x	x	0.3	5	x	-3	-9
(49) CCN(c1ccc(OC)cc1)S(=O)(=O)c1nnc(NC(=O)CC(C)C)s1
→ -11	4270	-3.1	3	2	1	-10
(50) CC/C(=N\NC(=O)c1ccncc1)C12CC3CC(CC(C3)C1)C2
→ -4	4369	x	x	3	x	x
(51) COc1ccccc1C(=O)NCC(=O)NCCSc1ccc(Br)cc1
→ -10	8573	0.5	4	x	7	-4
(52) CN=c1scc(-c2ccccc2Br)n1N=Cc1ccc[nH]1
→ x	x	-0.7	2	x	4	9
(53) c1ccc(-c2ccc3c(c2)NC(C2Nc4cc(-c5ccccc5)ccc4O2)O3)cc1 (configuration not stated)
→ -7	3000	x	x	3	x	x
(54) COc1ccc2[nH]c3c(c2c1)CCN1C(=O)C(CC(=O)NCc2cccc(C(F)(F)F)c2)C[C@H](C(=O)N2CCOCC2)[C@@]31C (some centres not stated)
→ 9	3571	-1.8	-5	x	-6	-3
(55) O=C(c1cc(-c2cccs2)on1)N1CCN(C(c2ccccc2)c2ccccc2)CC1
→ 3	3681	-6.2	10	-5	4	6
(56) Cn1c(=O)c2sccc2n2c(CCCC(=O)Nc3ccc(F)cc3F)nnc12
→ -25	3609	1.1	3	-19	-12	-7
(57) Cc1nc(C)c(C(=O)N/N=C/c2cn(C)c3ccccc23)s1
→ -10	4327	x	x	-2	x	x
(58) COC(=O)c1ccccc1NC(=O)c1cccnc1
→ -14	3972	0.5	-2	2	-1	13
(59) COc1cc(C(=O)NCc2nnc(SCC(=O)Nc3nccs3)o2)cc(OC)c1OC
→ -22	3801	7.1	12	5	5	3
(60) COc1ccnc(Oc2ccc(Cl)cc2)c1C#N
→ -11	4339	1.4	6	0	5	2
(61) Cc1nc2ccccc2c(=O)n1-c1ccc(Br)cn1
→ -33	x	4.0	8	0	-2	9
(62) Cc1ccc(S(=O)(=O)Oc2ccc(/C=C3\N=C(c4cccc(C)c4)OC3=O)cc2)cc1
→ -48	21802*	x	x	1	x	x
(63) CCCCNC(=O)COC(=O)c1cc2c(C)nn(-c3ccccc3)c2s1
→ 3	3158	-11	-13	-8	15	10
(64) O=Cc1ccc(N2CCCC2)o1
→ -19	2317	3.7	12	1	13	10
(65) Cc1ccc(S(=O)(=O)N(C)CC(=O)NNC(=O)CCC(=O)c2ccc(F)cc2)cc1
→ -18	3730	2.2	0	x	2	8
(66) Cc1ccc(N2C(=O)C(CC(=O)Nc3cccc(F)c3)N(C3CC3)C2=O)cc1 (configuration not stated)
→ 36	4805	-2.7	3	3	9	10
(67) O=C(NC1CCSc2ccccc21)c1ccccc1Br (configuration not stated)
→ 1	6226	25	9	-6	9	6
(68) O=C(O)CC1S/C(=N/N=C/c2ccc([N+](=O)[O-])cc2)N(c2ccc(O)cc2)C1=O (configuration not stated)
→ 4	5053	x	x	0	x	x
(69) O=C(/C=C/c1ccc(F)cc1)Nc1ccc2[nH]c(=O)[nH]c2c1
→ -15	4476	4.7	3	1	7	-2
(70) CNC(=O)c1snnc1-c1ccccc1
→ -26	2818	-4.5	6	-2	x	x
(71) COc1ccc([C@@H]2[C@@H]3C(=O)N(C(C)(C)C)C(=O)[C@@H]3[C@]3(Cc4ccccc4)C(=O)N(c4ccc(C)cc4)C(=O)N23)cc1
→ -8	4016	x	x	1	x	x
(72) CC1(C)CC(=O)C2=C(C1)OC(c1ccc(O)cc1)C(C#N)=C2N (configuration not stated)
→ -10	2568	3.4	7	0	5	15
(73) O=C(Cn1c(=O)oc2ccccc21)N(Cc1ccccc1)C1CCS(=O)(=O)C1 (configuration not stated)
→ -6	4033	-0.2	7	6	11	6
(74) O=c1cnnc(N/N=C/C2CC=CCC2)[nH]1 (configuration not stated)
→ -19	2643	x	x	-2	x	x
(75) Cc1ccc(S(=O)(=O)N(C)C)cc1NC(=O)COC(=O)/C=C/c1ccc2ccccc2n1
→ -50	u	6.2	9	-17	7	2
